Screening data as filed in PubChem.
gsp ag = agonists of gsp mutant (McCune-Albright syndrome). Potency, µM (highest dose often 76.9 µM), inactives show top-dose activation (cAMP increase), usual class: activators. 0.13% of 340,000 active. gsp mutant cells, cAMP HTRF, 30 min; control for the full effect not named in the record; active = well fitted activation curve with a large enough effect; inconclusive = small, poorly fitted or top-dose-only effect, or another doubt; inactive = no such curve, though single readings can be large or run the other way; cell line not stated here;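 further: phosphodiesterase inhibitor Ro 20-1724 added with compounds to block cAMP breakdown; potency means the concentration at half of the fitted maximal effect; nearly all actives have a fitted effect of over 60% in size; about a fifth of the inactives were tested at one dose only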
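Cells stably selected in G418 were plated at 2000/well, grown 16-24 hr, then given compounds in DMSO with the PDE inhibitor […] (300 uM solution added) for 30 min at 37C; cAMP was read by HTRF.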
gsp antagonist = antagonizes gsp, the McCune-Albright syndrome mutation | gsp-mutant cells, cAMP HTRF, 30 min; control for the full effect not named in the record | Potency, µM (series often up to 76.9 µM), without a hit: top-dose activity change, negative = inhibition, actives largely listed as inhibitors | 0.4% of 340,000 active; active = falling curve of any shape with a large fitted effect; inconclusive = falling curve, mostly with a smaller effect; inactive = flat or rising curve; cell line not stated here;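 further: intracellular cAMP measured with PDE inhibitor Ro 20-1724 present during compound exposure; potency means the concentration at half of the fitted maximal effect; on the % scale 0 is the no-effect control and ±100 the full control effect; nearly all actives have a fitted effect of over 65% in size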
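Cells, 2000/well, grown 16–24 h in DMEM 10% FBS with 0.5 mg/ml G418, then compounds plus […] (300 uM addition stock), 30 min at 37C. cAMP read by HTRF (cAMP-d2 and anti-cAMP antibody-K in lysis buffer) after 30 min RT.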
ClpP mod = qHTS Assay for Activators of ClpP; ATP-dependent Clp protease proteolytic subunit (Bacillus subtilis (strain 168)), P80244; purified B. subtilis ClpP, FRET peptide cleavage, 20 min; Potency, µM (top dose mostly 57.5 µM), for the others: top-dose activity change, negative = active; 1.9% of 340,000 active; active = well fitted falling curve with a large enough effect; inconclusive = small, poorly fitted or top-dose-only effect; inactive = no such curve, though single readings can be large or run the other way; further: potency means the concentration at half of the fitted maximal effect; the source files actives as falling curves though it sought activators and does not explain the sign; nearly all actives have a fitted effect of over 65% in size; many hits overshoot -100%
Target sequence (P80244 whole entry, looked up): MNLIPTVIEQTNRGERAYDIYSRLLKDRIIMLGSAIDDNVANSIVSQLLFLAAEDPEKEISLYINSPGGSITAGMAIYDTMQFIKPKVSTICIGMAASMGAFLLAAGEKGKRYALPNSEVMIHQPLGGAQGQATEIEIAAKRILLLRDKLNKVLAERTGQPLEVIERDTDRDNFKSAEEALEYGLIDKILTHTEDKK
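FRET quenching reversal measured ClpP activation: 10 microg/mL B. subtilis ClpP at pH 8 with the FRET-FV decapeptide, read at 430 nm after 320 nm excitation. The 20-min minus 0-min signal was scaled between DMSO/no-enzyme wells and ADEP (5.8 microM final).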
Menin MLL FP FL = menin-MLL binding inhibition, fluorescein peptide; Fluorescence polarization, fluorescein-MLL peptide displacement from menin; FP activity change, % at 61.4 µM; 290,000 tested, under 10 active; AID 1766; inconclusive = falling polarisation curve, or a change in total fluorescence; inactive = total fluorescence flat and polarisation flat or rising; no compound was filed as active; the % refers to the polarisation; negative = inhibition;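 further: % of control where 0% means no effect; inhibitors lower the polarisation; unlabelled MLL peptide was the positive control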
TRPML1 blocker = blocks the human TRPML1 channel; TRPML1-inducible cells, Ca2+ dye fluorescence, FDSS; active compounds read low; inhibition of EC80 agonist-evoked calcium signal; 0.02% of 390,000 active; Q9GZU1; activity change, negative = inhibition, % (no concentration beside the values); in the data active means activity change below about -50%; inconclusive means about -30% to -50%; inactive means above about -30%;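 further: stimulus is agonist 54-4 at its EC80 concentration; on the % scale 0 is the no-effect control and ±100 the full control effect; compound concentration not given in the record; the text of the record puts the active cut at -80%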
Target sequence (Q9GZU1 whole entry, looked up): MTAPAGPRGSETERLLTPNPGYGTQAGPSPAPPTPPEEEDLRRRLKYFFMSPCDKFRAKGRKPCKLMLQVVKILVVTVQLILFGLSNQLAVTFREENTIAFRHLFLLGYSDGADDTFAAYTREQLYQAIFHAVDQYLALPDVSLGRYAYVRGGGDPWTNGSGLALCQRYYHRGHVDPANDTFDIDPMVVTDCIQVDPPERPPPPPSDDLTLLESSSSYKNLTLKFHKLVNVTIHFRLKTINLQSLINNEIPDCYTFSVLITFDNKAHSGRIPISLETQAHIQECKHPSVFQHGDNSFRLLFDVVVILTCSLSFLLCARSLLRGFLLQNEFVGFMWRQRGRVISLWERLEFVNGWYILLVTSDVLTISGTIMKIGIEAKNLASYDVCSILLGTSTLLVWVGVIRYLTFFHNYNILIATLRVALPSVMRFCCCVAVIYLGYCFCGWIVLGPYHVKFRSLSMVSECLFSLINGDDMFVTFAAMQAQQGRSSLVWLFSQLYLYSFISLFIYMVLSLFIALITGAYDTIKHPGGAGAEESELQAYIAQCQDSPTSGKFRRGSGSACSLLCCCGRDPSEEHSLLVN
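Tet-induced TRPML1-DL cells loaded with Ca8 no-wash calcium dye were read kinetically on FDSS. Compound addition was followed by EC80 agonist 54-4 (4 uM final); inhibition was read over 110 s.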
TRPML1 agonist = human mucolipin-1 channel agonism; Q9GZU1; TRPML1-expressing cells, Ca2+ dye fluorescence, FDSS; host cell line not named in the record; reference of the full effect not given here; activation, % (no concentration beside the values); 0.12% of 410,000 active; in the data active = activation above about 50%; inconclusive = about 30% to 50%; inactive = below about 30%; further: 0% is about no effect; the text of the record puts the active cut at 80%
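Agonist activity was taken from a 110 s kinetic Ca2+ dye read on the FDSS after pinning compounds onto TRPML1-DL cells. The cells were seeded at 1,500/well with Tet inducer, incubated about 16 h, then dye-loaded at room temperature.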
The depositor's hits bear a star; ? = inconclusive; · = no result given; & = joins results of further samples; [ ] = remark or other dose.

SMILES	gsp ag	gsp antagonist	ClpP mod	Menin MLL FP FL	TRPML1 blocker	TRPML1 agonist
CC(C)OCCCNC(=O)C1CCC(=O)N1C(C)C (centres undefined)	26%	2%	1.8%	-0.6	-3	0.4
O=S(=O)(Nc1ccc(-c2ccc(N3CCCC3)nn2)cc1)c1ccc(Cl)cc1	·	·	-19%	·	5	-0.8
COc1ccc(C)cc1NC(=O)c1oc2ccc(S(=O)(=O)N3CCOCC3)cc2c1C	·	·	-7.4%	·	38	-0.5
Cc1[nH]n(S(=O)(=O)Cc2ccccc2)c(=O)c1N=Nc1ccccc1Cl	-1%[15.4 µM]	-3%	·	-0.6	-10	-0.9
Cc1nnc(SC(C(=O)c2ccccc2)c2ccccc2)[nH]c1=O (centres undefined)	5%[15.4 µM]	-17%	·	1.3	6	2.0
CCOc1c(C=C(C#N)C#N)c2ccccc2n1CC	-30%	-11%	0.1%	3.6	2	0.9
COc1ccc(CNC(=O)c2cc(S(=O)(=O)N3CCCCC3)ccc2N2CCOCC2)cc1OC	-14%	-6%	-4.1%	·	-4	-0.6
COc1cc2oc(=O)cc(-c3ccc(-c4ccc(C(F)(F)F)cc4)cc3)c2c(OC)c1OC	·	5%	1.1%	-4.1	3	-0.8
O=C(CC1C(=O)NCCN1C(=O)Nc1ccccc1)Nc1cc(Cl)cc(Cl)c1 (centres undefined)	-12%	-16%	1.3%	?	-5	-0.5
CCCCNc1nnc(CCn2nc(C)c(Br)c2C)s1	-3%	15%	-3.2%	0.0	10	-0.6
COc1ccccc1NC(=O)N1CCCC1C(=O)NCc1ccc2c(c1)OCO2 (centres undefined)	?	6%	0.1%	-3.3	51	1.2
Cc1cccc2sc(NC(=O)C3CC3)nc12	-1%[15.4 µM]	8%	28%	-4.0	-10	-0.2
CCc1nn(CCCC(=O)N2CCN(c3ccc(OC)cc3)CC2)c(=O)c2cc3occc3n12	-10%	0%	-1.0%&0.0%	-0.8	1&-18	2.1&0.5
CCCCNC(=S)Nc1ccccc1F	1%	6%	0.3%	-0.4	-6	-0.5
Cc1ccc(C(=O)Nc2ccccc2OC(F)F)cc1	19%	-2%	-1.0%	1.3	-8	3.2
Fc1ccc(CNc2nc3ccccc3n3cnnc23)cc1	0%	10%	5.5%	2.5	-3	-0.8
CCc1nnc(NC(=O)CSc2nnc(Cc3ccccc3)n2-c2ccccc2)s1	5%	-15%	-2.4%	0.0	-3	0.6
Cc1ccc(CC(=O)Nc2nc3c(s2)CCCC3)cc1	-2%	-5%	-2.0%	-0.5	13	0.0
CC1(C)CC(=O)C2=C(C1)c1c(ccc3ncccc13)NC2c1cccs1 (centres undefined)	?	-8%	?	2.7	23	3.6
CC(O)[C@H]1CNCCN1CCc1cccc2ccccc12 (some centres undefined)	-19%	-7%	-2.6%	·	6	1.2
Cc1ccc(Cn2cc(CCC(=O)NCc3ccccc3F)c3ccccc32)cc1	·	·	?	·	-13	0.5
COCCn1c(C)cc(C(=O)CSc2ccc(NC(C)=O)cc2)c1C	-6%	8%	2.2%	4.4	7	0.8
O=C(NCCN1C(=O)S/C(=C\c2ccccc2F)C1=O)C1CC(=O)N(Cc2ccccc2)C1 (centres undefined)	-52%[inhibitor]	-23%	-1.2%	·	32	0.6
O=C(NCc1cccnc1)C(=O)Nc1cc2c3c(c1)CC(=O)N3CCC2	-5%[15.4 µM]	8%	-0.8%	·	11	0.4
Cc1ccccc1OCC(=O)OCc1cc(=O)n2nc(-c3cccs3)sc2n1	·	·	?	·	7	-0.5
O=C(O)C1=C(C(=O)O)C2C=CC1C2	-26%	6%	·	·	8	0.5
Cc1ccc(OCC(=O)NC(=S)Nc2ccc(Br)cn2)cc1	27%	12%	1.8%	1.7	11	1.6
COc1ccc(CC(=O)NC(C)c2nnc(SCCC(=O)Nc3ccccc3)n2C)cc1 (centres undefined)	29%	3%	0.3%	3.1	?	0.4
CCn1c(CNc2ccc(F)cc2)nnc1SCC(=O)Nc1ccc(OC)cc1OC	6%	7%	-3.0%	-2.3	16	0.8
Cc1cc(=O)[nH]c2nnc(SCc3ccccc3F)n12	·	·	-9.6%	·	30	1.5
CCCCCC(=O)N1C[C@@H](O)[C@H](n2cc(COC(=O)c3ccccc3)nn2)C[C@@H]1c1ccc(C)cc1	?	·	-0.1%	·	7	4.5
CC(C)(C)NC(=O)CN(C(=O)CCC(=O)Nc1nccs1)c1cccc(C(F)(F)F)c1	-15%	1%	-0.8%	-1.5	-2	-0.1
CCc1cc2c(=O)c(-c3nc4ccccc4n3C)c(COCC(=O)O)oc2cc1O	-10%	-8%	-1.9%	4.0	-3	-0.5
CCc1ccc(-c2nc(NC(=O)c3ccc(OCC(=O)Nc4ccc(F)cc4)c(OC)c3)sc2C)cc1	?	20%	?	1.8	4	-0.8
O=C(CNC(=O)c1ccc(N2C(=O)c3ccccc3C2=O)cc1)OCC(=O)c1ccc(Cl)cc1	-14%	?	1.2%	1.1	6	0.3
O=C(CSc1ncccn1)NC(=O)Nc1ccc2c(c1)OCCO2	-15%	?	2.9%	3.0	50	0.3
COc1ccc(S(=O)(=O)N2CCNC(=O)CC2)cc1	-10%	1%	-3.1%	·	-7	-1.2
CCOC(=O)Cc1csc(NC(=O)c2ccc3c(c2)OCO3)n1	13%	-10%	-0.2%	2.8	1	-0.1
O=c1c2ccccc2c2ccccc2c(=O)n1Nc1ccccc1	5%	·	-1.4%	·	5	-0.6
CCOC(=O)c1c(-c2ccc(OC)cc2)oc2ccc(OCc3ccc(F)cc3F)cc12	·	·	3.8%	·	-10	-0.4
Cc1cc(C)cc(NC(=O)COC(=O)c2ccc(CN3CCCC3=O)cc2)c1	-21%	5%	-3.3%	·	2	1.2
Cc1c(C(=O)N(C)Cc2cccc(F)c2)oc2c(Cl)cccc12	22%[15.4 µM]	-13%	·	0.3	16	0.2
Cc1nnc(-c2cnn(C)c2N)n1Cc1ccccc1F	-10%	-13%	0.8%	3.6	-4	0.3
C/C(=N\Nc1ccc(Cl)c(C(=O)O)c1)c1ccc(N2CCOCC2)cc1	-16%[15.4 µM]	4%	·	0.1	1	-0.2
CCCCN(CCCC)C(=O)C1CCN(S(=O)(=O)c2cccc3nsnc23)CC1	·	·	-4.4%	·	-3	1.1
O=C(Cc1ccc([N+](=O)[O-])cc1)Nc1nnc(C2CC2)s1	-3%	11%	25µM*	·	13	0.1
O=C(N/N=C/c1ccc(OC(=O)c2ccccc2)cc1)c1cccc(O)c1	-3%[15.4 µM]	-9%	·	-3.9	-3	3.6
CCCN(C(=O)/C=C/c1nc2ccccc2s1)C1CCS(=O)(=O)C1 (centres undefined)	7%	-13%	?	·	-7	-0.3
CN(C(=O)c1cccc(OC2CCN(S(=O)(=O)N(C)C)CC2)c1)C1CCOC1 (centres undefined)	-11%	17%	1.1%	-0.2	2	-0.4
CC12CCC(C(=O)N(CCCCN3CCN(c4ccccn4)CC3)C1=O)C2(C)C (centres undefined)	3%	11%	-6.0%	-5.9	6	-1.1

(further entries)
SMILES	gsp ag	gsp antagonist	ClpP mod	Menin MLL FP FL	TRPML1 blocker	TRPML1 agonist
O=C(O)c1cc(S(=O)(=O)N(Cc2ccccc2)c2ccc(Cl)cc2)ccc1Cl	5%[15.4 µM]	-44%	31%	-5.0	6	-1.2
O=C1/C(=C/c2cccnc2)SC(=S)N1c1ccc(O)cc1	-3%[15.4 µM]	-11%	·	2.3	31	1.1
CSc1ccc(/C=N/n2c(Cc3ccc(Br)cc3)n[nH]c2=S)cc1	-59%[inhibitor]	-18%	3.8%	2.6	10	0.7
Cc1nc(COc2cc3oc(=O)cc(C)c3cc2Cl)cs1	16%	5%	·	1.6	32	-0.3
O=c1[nH]cc(-c2ccc(Br)cc2)n1Cc1ccccc1	-20%	-4%	-0.9%	-1.1	-5	2.2
Cn1cc(S(=O)(=O)N2CCCCCC2)cc1C(=O)Nc1ccc(Cl)c(C(F)(F)F)c1	·	·	6.1%	·	5	-0.1
COc1ccccc1N1C(=O)CCC1(C#N)c1ccccc1 (centres undefined)	-34%	7%	-5.0%	-2.2	-10	-1.0
O=C(NCCc1ccccc1)C(=O)NCC(c1cccnc1)N1CCN(c2ccccc2)CC1 (centres undefined)	·	·	-1.1%	·	0	1.3
Cc1ccc(N=C2NC(=O)/C(=C/C=C/c3ccco3)S2)cc1	30%	-11%	0.8%	32[activator]	-5	2.7
Cc1ccc(NC(=O)Nc2nnc(N3CCCC3)s2)c(C)c1	·	·	0.2%	·	14	-0.6
O=C(COc1ccc2ccc(=O)oc2c1)Nc1nccs1	-43%	8%	4.3%	-0.1	34	1.9
C#CCOCCOCCOCCNc1nc(N2CCN(C(=O)CCCCCCCCCCNC(=O)[C@H]([C@@H](C)CC)n3cc(CCCCN=C(N)N)nn3)CC2)nc(N2CCN(C(=O)CCCCCCCCCCNC(=O)[C@H](CO)n3cc(CCCCCN)nn3)CC2)n1	·	-21%	1.7%	·	-3	-0.8
Cc1ccc(NC(=O)Cc2nc(-c3c[nH]c(C(=O)N4CCCC4)c3)cs2)c(C)c1	26%	?	-0.9%	·	0	1.5
COc1ccccc1NC(=O)CN(Cc1ccco1)C(=O)c1ccc(-n2nc(C)cc2C)cc1	-12%	-15%	-1.8%	-0.3	26	-0.2
Cc1ccc(NC(=O)COc2ccc3oc4c(c3c2)CCCC4)cc1C	·	·	1.3%	·	-6	0.7
Cc1ccc(OCC(=O)NCCCNC(=O)COc2ccc(C)cc2)cc1	20%	11%	1.6%	-1.1	23	3.3
CCCn1c(=O)n(C)c(=O)c2c(SCc3cc(C(C)=O)ccc3OCC)nc(C3CC3)nc21	2%	-12%	-1.4%	·	6	-0.5
CC(=O)Nc1ccc2c(c1)nc(CCNC(=O)c1ccco1)n2C	18%[15.4 µM]	-25%	·	-1.7	-1	-0.4
CC1(C)C(C(=O)O)N2C(=O)C(NC(=O)Cc3ccccc3)C2S1=O (centres undefined)	19%	-4%	·	6.5	-5	0.3
CCCCn1c(N)c(N(CC)C(=O)c2cccc(S(=O)(=O)N3CCCc4ccccc43)c2)c(=O)[nH]c1=O	-56%[inhibitor]	2%	1.9%	·	2	-0.8
Cc1cc(NC(=O)Cn2c(=O)c3c(ncn3CCC(C)C)n(Cc3ccccc3)c2=O)no1	-8%	-9%	1.9%	-1.9&1.3	-5	1.0
O=C1CCc2cccc(O)c2N1	-3%	10%	-0.9%	·	3	0.8

Some entries already given, reduced to gsp antagonist and ClpP mod.
SMILES	gsp antagonist	ClpP mod
CSc1ccc(/C=N/n2c(Cc3ccc(Br)cc3)n[nH]c2=S)cc1	-18%	3.8%
Cc1nc(COc2cc3oc(=O)cc(C)c3cc2Cl)cs1	5%	·
O=c1[nH]cc(-c2ccc(Br)cc2)n1Cc1ccccc1	-4%	-0.9%
